Ecoli growth = E. coli growth inhibition. Escherichia coli growth, OD600, 23 h; stronger effect = lower value. OD600 absorbance (test concentration not listed). actives 0.21% (n = 330,000). AID 1053175;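 active = OD600 absorbance below the run mean of sample wells minus 3.6 SD, in any replicate, cut at about 0.56 in these data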;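 also: stock transfer was 300 nL into about 60 µL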
HNF4A DNA FP = change in binding of human HNF4 alpha to DNA; P41235; HNF4a-FITC DNA binding, fluorescence polarization, 1 h; actives 0.3% (n = 360,000); activity change, % at 10 µM; in the data active = activity change above about 30%, passing the limit was not always enough;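 also: controls were the assay level and a saturating level of protein; the project sought stronger binding though the title names inhibitors; some compounds called inactive have numbers as strong as hits; positive values seem to mean higher polarization but the record does not say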
Target sequence (P41235 whole entry, looked up): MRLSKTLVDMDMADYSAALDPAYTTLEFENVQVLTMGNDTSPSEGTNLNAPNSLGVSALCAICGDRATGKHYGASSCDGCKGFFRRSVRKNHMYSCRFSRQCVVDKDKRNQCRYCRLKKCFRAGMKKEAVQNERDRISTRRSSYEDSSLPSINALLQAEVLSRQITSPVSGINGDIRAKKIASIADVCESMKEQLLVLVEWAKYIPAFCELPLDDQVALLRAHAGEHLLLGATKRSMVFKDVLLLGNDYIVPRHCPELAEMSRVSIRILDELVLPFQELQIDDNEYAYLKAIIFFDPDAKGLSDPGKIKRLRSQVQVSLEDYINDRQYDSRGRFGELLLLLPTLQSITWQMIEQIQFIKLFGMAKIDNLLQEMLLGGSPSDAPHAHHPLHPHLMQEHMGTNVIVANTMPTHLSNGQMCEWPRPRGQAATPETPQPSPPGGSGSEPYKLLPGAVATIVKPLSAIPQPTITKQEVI
Beta2AR agonist = activates human beta-2 adrenergic receptor causing internalization; P07550; Am2.2-beta2AR cells, FAP receptor internalization, flow cytometry; reference of the scale not given here; response, % (concentration not given with the values); actives 0.43% (n = 340,000); AID 504454;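 active = response above a set limit, near 3 SD of response in nonfluorescent compounds, cut at about 42% in these data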;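 also: stock transfer was 100 nL into about 11 µL; a reference agonist was the positive control; negative values mostly stem from fluorescent compounds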
Target sequence (P07550 whole entry, looked up): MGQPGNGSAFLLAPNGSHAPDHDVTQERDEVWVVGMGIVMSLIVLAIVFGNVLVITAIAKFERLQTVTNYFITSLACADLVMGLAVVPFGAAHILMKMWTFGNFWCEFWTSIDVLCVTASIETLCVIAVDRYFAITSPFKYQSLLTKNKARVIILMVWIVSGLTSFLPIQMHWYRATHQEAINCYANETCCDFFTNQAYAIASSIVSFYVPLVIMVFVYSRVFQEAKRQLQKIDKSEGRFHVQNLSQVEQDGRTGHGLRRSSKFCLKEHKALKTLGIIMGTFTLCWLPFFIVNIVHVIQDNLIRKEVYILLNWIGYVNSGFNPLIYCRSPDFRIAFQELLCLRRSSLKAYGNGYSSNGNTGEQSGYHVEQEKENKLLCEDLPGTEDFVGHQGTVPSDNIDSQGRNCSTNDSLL
FGF22 binding = shifts melting point of recombinant human FGF22; Q9HCT0; recombinant FGF22 thermal shift, SYPRO orange fluorescence; percent of sucrose octasulfate shift, DMSO zero; calls only at 9.99 µM; actives 1.5% (n = 340,000); AID 651658;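 active = melting point raised past a set limit in the mean and every replicate; inconclusive = no clear call; three in four hits are not shown here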
Target sequence (Q9HCT0 whole entry, looked up): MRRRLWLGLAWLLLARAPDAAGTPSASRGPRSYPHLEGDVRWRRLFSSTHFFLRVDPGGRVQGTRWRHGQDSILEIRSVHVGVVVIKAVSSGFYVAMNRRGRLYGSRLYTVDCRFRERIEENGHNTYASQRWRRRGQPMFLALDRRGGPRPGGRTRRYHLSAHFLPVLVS
ALR inh = human ALR oxidase inhibition via reduced H2O2 | actives 3.8% (n = 290,000) | purified ALR, DTT oxidation, H2O2 HRP-luminol luminescence | AID 485317 | inhibition, % (test concentration not listed) | P55789;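 active = mean and each replicate at 75% or more; inconclusive = only one of the two met; inactive = neither met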;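 also: stock transfer was 7.5 nL into about 7.5 µL; 0% = neutral wells and 100% = wells with inactivated enzyme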
Ecoli rRNA inh = selective bacterial rRNA inhibition in E. coli; E. coli WT GFP vs humanized-ribosome RFP mutants, fluorescence, 24 h; stronger effect = lower value; DMSO median 0, no signal -100; GFP signal change (wild-type ribosome), % (concentration not given with the values); actives 1.6% (n = 350,000);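 active = significant combined selectivity score with lowered wild-type GFP, culture density cut under 30%, mutant RFP and density less affected; inactive = any of these conditions unmet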; also: one replicate is shown; some compounds called inactive have numbers as strong as hits
UCH37 DUB inh = blocks the human deubiquitinase UCH37 | actives 0.33% (n = 330,000) | AID 588478 | purified proteasome/UCH37, Ub-AMC cleavage fluorescence | inhibition, % (concentration not given with the values);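 active = mean of two replicates above 20%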;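 also: 0% = compound-free wells with enzyme and 100% = wells lacking proteasome; stock transfer was 100 nL into about 20 µL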
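Material: human UCH37 enzyme supplied as purified proteasome complex / Amount: 0.15 nM proteasome as dispensed / Buffer or medium: pH 7.4 Tris-HCl (50 mM) with ovalbumin, ATP-MgCl2, DTT / Times: preincubation 30 min, reaction 25 min, room temperature / Technique: AMC fluorescence from Ub-AMC cleavage, excitation 355 nm, emission 460 nm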
Ecoli rRNA inh OD600 = recorded beside Ecoli rRNA inh, whose call it bears; OD600 change, %; measured here: OD600 growth;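 optical density of the mix in the first replicate; 0 = DMSO median and -100 = no signal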
Ecoli rRNA inh RFP = second read-out of Ecoli rRNA inh, no call of its own (marks repeat the call); RFP signal change, %; measured here: RFP humanized mutant strains;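 first replicate; 0 = DMSO median and -100 = no signal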
* = called active by the depositor; i = inactive; ? = inconclusive; / = no result given; + = active, no number; & = joins results of further samples. Some of the compounds tested (hit frequency here may not be typical).

SMILES	Ecoli growth	HNF4A DNA FP	Beta2AR agonist	FGF22 binding	ALR inh	Ecoli rRNA inh	Ecoli rRNA inh OD600	Ecoli rRNA inh RFP	UCH37 DUB inh
O=C(CSc1nc2ccc([N+](=O)[O-])cc2s1)NC1CCS(=O)(=O)C1 (stereo not drawn)	0.7	-0.7	-5	i	1	1	3	-1.6	8.2
Fc1cccc(Cl)c1Cn1nnc2c(NCc3ccncc3)ncnc21	0.68	5.1	3	i	-2	14	6	0.9	2.9
O=C(COC(=O)CCC(=O)c1ccc(F)cc1)NCc1ccco1	0.68	6.0	-2	i	1	5	2	2.7	1.8
CC(=O)c1cnc(-c2ccccc2Cl)s1	0.66	2.2	5	i	-1	0	-5	-1.5	0.8
O=C(/C=C/c1ccco1)N1CCN(S(=O)(=O)c2ccccc2)CC1	0.7	-9.4	-13	i	-6	11	16	1.2	3.9
O=C(NCCc1ccccc1)/C(=C\c1ccccc1)NC(=O)c1ccco1	0.69	5.0	-1	i	2	-1	0	0.6	-0.9
CCCC(=O)Nc1nc(-c2ccc(OC)cc2)cs1	0.68	0.8	-8	/	2	/	/	/	1.6
CCOC(=O)c1[nH]c2ccccc2c1NC(=O)c1ccco1	0.71	2.6	-3	/	-10	/	/	/	3.1
Cc1ccc(CN(C)C[C@@H]2OCc3cnnn3CCCC(=O)N([C@H](C)CO)C[C@H]2C)cc1	/	-2.4	/	i	/	-1&3	6&2	-3.9&1.2	/
C[C@@H](NC(=O)[C@@H]1CCCN1C(=O)[C@@H]1CCCN1C(=O)c1cccs1)c1ccccc1	/	-2.1	/	i	/	6	5	0.8	/
O=C(CN1CCN(C2CCCCC2)CC1)NCCC1=CCCCC1	0.68	-1.8	-6	i	-1	8	13	-1.9	15
COc1ccc(Cc2nnn(CC(=O)O)n2)cc1	0.73	3.8	4	/	-6	/	/	/	3.7
O=[N+]([O-])c1ccccc1SNc1ccccn1	0.62	3.5	-6	/	17	/	/	/	1.5
CC1=NN(C(=O)c2ccc(Cn3cc([N+](=O)[O-])cn3)cc2)C(O)(C(F)(F)F)C1 (stereo not drawn)	0.7	0.4	-6	i	/	/	/	/	3.5
Oc1ccc(CCC2CCCCN2Cc2nc(C3CC3)no2)cc1 (stereo not drawn)	/	2.2	0	i	?	-19	-27	-4.7	/
O=C(C1CCN(S(=O)(=O)c2cnc[nH]2)CC1)N1CCN(c2ccc([N+](=O)[O-])cc2)CC1	0.71	1.5	-2	i	18	-6	1	-0.6	12
CCCn1c(C)cc(=O)c2cc(NC(=O)c3cnccn3)ccc21	0.72	4.6	-2	/	/	/	/	/	1.9
CCCN(Cc1ccccc1)C(=S)NC(=O)c1ccccc1[N+](=O)[O-]	0.71	-0.1	-4	i	-2	-51*	-36*	-15*	4.0
O=C(Nc1ncnc2sc3c(c12)CCCC3)c1ccncc1	0.72	0.8	-9	i	-13	18	11	-6.7	1.3
COc1ccc(NC(=O)NCc2ccccn2)c(OC)c1	0.69	-0.4	-3	i	-6	10	11	-1.1	1.0
O=C(c1ccccc1)N1CCN(C(=O)c2ccccc2)CC1	0.75	3.1	3	/	-12	/	/	/	5.6
CCOc1ccccc1NC(=O)c1nc[nH]c1C(=O)Nc1ccccc1OCC	0.74	-1.9	-2	/	9	/	/	/	-103
Cc1ccc2c(C(=O)CN3CCOCC3)c(C)[nH]c2c1	0.67	0.5	5	/	-4	/	/	/	0.5
COC(=O)c1c(C)[nH]c(C(=O)CN(C)CC(=O)Nc2cccc(F)c2)c1C	0.67	1.0	7	i	0	0	-18	2.9	4.2
CC(C)Oc1ccc(CNC(=O)c2ccc3c(c2)N(C)CCS3)cc1	0.8	-1.4	-1	i	12	-2	-23	-3.0	-220

The listing continues:
SMILES	Ecoli growth	HNF4A DNA FP	Beta2AR agonist	FGF22 binding	ALR inh	Ecoli rRNA inh	Ecoli rRNA inh OD600	Ecoli rRNA inh RFP	UCH37 DUB inh
O=C(/C=C/c1ccc2ccccc2c1)c1ccoc1	0.74	1.6	3	/	67	/	/	/	-2.9
COc1cc(-c2nnc(-c3cccnc3)o2)cc(OC)c1OC	0.72	-5.4	-10	i	-4	-4	-2	0.6	0.1
Cc1ccc(NC(=O)CN(C)C(=O)c2cccc(S(=O)(=O)N3CCCC3)c2)cc1	0.71	0.1	-1	i	/	3	-1	0.4	1.6
CCn1c(C)nnc1SCC(=O)Nc1cccc(Cl)c1	0.67	-1.2	-1	i	-2	-4	10	-3.2	2.8
O=C(CCNC(=O)C1CCN(S(=O)(=O)c2ccc(F)cc2)CC1)NCc1cccc(Cl)c1	0.71	0.2	-3	i	-21	2	5	2.1	1.3
CNC(=S)NN=C(C)c1ccc(OC)cc1O	/	-0.9	-2	i	/	6	4	-1.5	/
COc1ccc(-c2csc3nc(C(C)(C)C)oc(=O)c23)cc1OC	0.68	-0.1	-19	i	1	-11	-5	-4.0	6.3
CN(C(=O)c1cccc(C#N)c1)c1nnc(-c2ccncc2)s1	0.69	1.5	0	/	/	/	/	/	-5.0
O=C(NCc1ccc(F)cc1)C(=O)NCC1CCCN1S(=O)(=O)c1ccccc1 (stereo not drawn)	0.67	-2.9	-2	i	-1	-7	1	0.7	3.1
Cc1ccc(NC(=O)COC(=O)/C=C/c2c(C)nn(-c3ccc(F)cc3)c2Cl)cc1F	0.71	-3.1	-8	i	-1	/	/	/	3.6
O=C(NNC(=O)c1cnccn1)c1cccc([N+](=O)[O-])c1	0.68	-1.3	-3	/	/	/	/	/	4.2
CCc1nc2c(OCCOc3ccccc3)cccn2c1N(C)C(=O)c1ccccc1F	/	-4.6	/	i	/	-33	-65	-14	/
O=C(c1cccs1)N1CCN(S(=O)(=O)c2cccc(Cl)c2Cl)CC1	0.7	0.2	-7	i	/	-3	-22	-1.3	-0.4
N#Cc1ccc(C(C(=O)NC2CCCCC2)n2c(=O)c(-c3cc4ccccc4[nH]3)nc3ccccc32)cc1 (stereo not drawn)	/	2.0	/	i	/	18	23	3.7	/
CCc1nc(SCC(=O)Nc2ccccc2OC)n[nH]1	0.7	0.8	2	i	-18	-1	1	2.4	-0.3
Cc1ccc(OCc2nnc(SCCN3CCOCC3)n2C)cc1	0.71	2.4	11	/	-3	/	/	/	0.0
CCC(=O)N(NC1=NS(=O)(=O)c2ccccc21)S(=O)(=O)c1ccc(C)cc1	0.7	-3.1	-3	+	-16	7	2	-5.2	-0.5
OCC[C@@H]1C[C@@H](O)[C@H](O)[C@@]2(CCc3ccccc3O2)O1	/	6.5	4	i	2	11	14	-1.7	3.9
Cc1ccccc1NC(=O)CCCSc1nc2ccccc2s1	0.71	-0.6	-9	i	4	-43	-71	-5.6	-0.5
C/C(=N\NC(=O)c1ccoc1C)c1ccc(Cl)s1	/	-3.8	-11	i	-35	21	18	7.6	/
COc1ccc(S(=O)(=O)N(C(C)=O)c2ccc(OC(C)=O)c3ccccc23)cc1[N+](=O)[O-]	0.74	1.9	11	+	-31	10	18	2.5	6.7
CS(=O)(=O)N1N=C(c2cccs2)CC1c1ccccc1F (stereo not drawn)	0.71	4.9	-4	i	-13	3	2	-0.3	3.0
Cc1cccc(NC(=S)N2CCCC2)c1	0.71	2.4	3	i	-18	7	5	-0.8	1.0
CN1CCC(NC(=O)c2cc(-c3cccc(Br)c3)nc3ccccc23)CC1	0.67	-0.6	20	i	-4	-23*	-18*	2.0*	2.5
C=CC[C@@H](CC(=O)N(CCO)Cc1ccccc1)C(=O)N[C@@H](COC(=O)[C@@H](CC=C)Cc1ccc(F)cc1)Cc1c[nH]c2ccccc12	/	4.9	5	i	1	5	5	1.8	0.8

By substructure: the entries above containing an aryl thioether with sulfur outside any ring (5)
SMILES	Ecoli growth	HNF4A DNA FP	Beta2AR agonist	FGF22 binding	ALR inh	Ecoli rRNA inh	Ecoli rRNA inh OD600	Ecoli rRNA inh RFP	UCH37 DUB inh
O=C(CSc1nc2ccc([N+](=O)[O-])cc2s1)NC1CCS(=O)(=O)C1 (stereo not drawn)	0.7	-0.7	-5	i	1	1	3	-1.6	8.2
CCn1c(C)nnc1SCC(=O)Nc1cccc(Cl)c1	0.67	-1.2	-1	i	-2	-4	10	-3.2	2.8
CCc1nc(SCC(=O)Nc2ccccc2OC)n[nH]1	0.7	0.8	2	i	-18	-1	1	2.4	-0.3
Cc1ccc(OCc2nnc(SCCN3CCOCC3)n2C)cc1	0.71	2.4	11	/	-3	/	/	/	0.0
Cc1ccccc1NC(=O)CCCSc1nc2ccccc2s1	0.71	-0.6	-9	i	4	-43	-71	-5.6	-0.5

The list goes on:
SMILES	Ecoli growth	HNF4A DNA FP	Beta2AR agonist	FGF22 binding	ALR inh	Ecoli rRNA inh	Ecoli rRNA inh OD600	Ecoli rRNA inh RFP	UCH37 DUB inh
COc1cccc(-c2noc(-c3ccoc3C)n2)c1	0.71	-2.4	-5	i	-18	0	7	-0.1	1.2
O=C(c1cccc(S(=O)(=O)N2CCCC2)c1)c1nnc(-c2ccncc2)o1	0.7	2.1	0	/	1	/	/	/	0.1
C/C(=N\Nc1cc(N2CCOCC2)ncn1)c1cccc([N+](=O)[O-])c1	/	1.2	16	i	-5	20	9	-0.3	/
CC(=O)c1c(C)[nH]c(C(=O)COc2ccc(C#N)cc2)c1C	0.74	-4.5	3	/	-7	/	/	/	-3.4
COc1cccc(-c2nc(CS(=O)(=O)CC(=O)NCCN3CCOCC3)c(C)o2)c1	0.69	-1.6	5	i	99*	12	9	-0.6	2.3
CC(C)c1nc(SCC(=O)c2c[nH]c3ccccc23)n[nH]1	0.63	5.6	12	i	-8	-4	-5	-7.4	6.7
COc1ccc(/C(N)=N/OC(=O)c2ccc(C)c([N+](=O)[O-])c2)cc1	/	0.8	-8	/	-2	16	16	1.5	-1.4
Cc1cccc(C)c1NC(=O)CSc1nnc(-c2ccccc2)n1Cc1ccc2c(c1)OCO2	0.75	-2.2	7	/	-10	/	/	/	1.6
CSc1ncccc1C(=O)N1CCC(C)(C(=O)O)C1 (stereo not drawn)	/	0.6	/	i	/	3	-14	1.3	/
Fc1ccc(F)c(CN2CCN(c3ncccn3)CC2)c1	0.68	2.7	-12	i	5	7	4	-10	2.5
CC1SC(=NC(=O)c2ccco2)NC1=O (stereo not drawn)	0.68	-4.3	-1	/	-28	/	/	/	0.5
COc1ccc(-n2c(=O)c3ccccc3n(Cc3cccc(C)c3)c2=O)cc1OC	0.68	-1.8	1	i	9	14	7	1.9	0.5
CCOC(=O)C1CCN(C(=O)c2ccc3snnc3c2)CC1	0.77	3.9	0	/	-6	/	/	/	-0.3
CCOC(=O)C1C(=O)NC(C(=O)OCC)(C(=O)OCC)C1CC (stereo not drawn)	0.68	2.6	3	i	/	2	10	-2.1	0.3
Cc1cccc(C)c1-n1nnnc1C1c2ccccc2C(=O)N1CCc1ccc(O)cc1 (stereo not drawn)	/	-0.5	/	i	/	-35	-56	-3.9	/
O=C(COC(=O)c1cc(=O)[nH]c(=O)[nH]1)Nc1cccc(Cl)c1	0.7	-3.7	1	i	0	3	1	0.6	1.2
COc1cc(C=O)ccc1Oc1cnccn1	0.71	-0.1	2	i	10	11	4	-0.7	-0.8
Cc1cc(C(=O)CN2C(=O)C(=O)N(C3CCCC3)C2=O)c(C)n1CCc1ccccc1	0.69	1.7	-5	i	/	3	-5	2.6	-1.0
Cc1ccccc1CSc1nnc2ccc(-c3ccncc3)nn12	0.71	-1.2	-1	i	1	-8	-17	-3.4	1.6
CCn1cc(Br)c(C(=O)Nc2ccc(OC)cc2)n1	0.71	0.8	-12	/	-10	-12	-8	-2.9	-1.3
N#Cc1c(-c2ccccc2)[nH]c(=O)[nH]c1=O	0.68	-1.6	3	i	-4	12	6	-4.6	4.0

Screening results (PubChem BioAssay)
